High-throughput results deposited in PubChem by National Center for Advancing Translational Sciences (NCATS).
VDR inhibitor = Inhibitors of the vitamin D receptor (VDR): qHTS | Vitamin D3 receptor (Homo sapiens), P11473 | VDR-SRC2-3 peptide fluorescence polarization, 2 h | Potency, µM, for inactives: max response, negative = inhibition, hits mostly inhibitors | 0.93% of 400,000 active | AID 504847, 2011; active means well fitted inhibition curve with a large enough effect; inconclusive means small, poorly fitted or top-dose-only effect, or another doubt; inactive means no such curve, though single readings can be large or run the other way; further: series mostly up to about 120 µM
Target sequence (P11473 whole entry, looked up): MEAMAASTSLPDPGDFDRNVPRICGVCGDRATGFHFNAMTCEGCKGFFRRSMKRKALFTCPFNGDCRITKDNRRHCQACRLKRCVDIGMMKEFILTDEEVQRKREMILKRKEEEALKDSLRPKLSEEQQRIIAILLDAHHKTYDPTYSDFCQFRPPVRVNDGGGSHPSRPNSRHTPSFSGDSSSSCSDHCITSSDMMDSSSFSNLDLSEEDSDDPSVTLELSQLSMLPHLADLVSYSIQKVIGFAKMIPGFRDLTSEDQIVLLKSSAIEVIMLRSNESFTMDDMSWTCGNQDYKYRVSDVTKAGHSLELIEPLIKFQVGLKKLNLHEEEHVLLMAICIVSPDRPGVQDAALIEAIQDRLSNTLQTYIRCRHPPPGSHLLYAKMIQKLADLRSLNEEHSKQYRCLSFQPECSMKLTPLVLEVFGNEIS
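Reagent solutions, kept cold and dark, are dispensed first; compounds are then pinned in at 23 nl, plates briefly spun, and incubated 2 h at ambient temperature. Inhibition of VDR–SRC2-3 peptide binding is read by fluorescence polarization.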
The depositor's hits bear a star; ? = inconclusive; & = joins results of further samples. On the % scale 0 is the no-effect control and ±100 the full control effect; potency means the concentration at half of the fitted maximal effect. Only part of the results is shown (hit frequency here may not be typical).

> CCCCCCCc1c(O)nc(SCCN2CCOCC2)[nH]c1=O
  VDR inhibitor: 0.4%

> O=C(CSc1nc2c([nH]c3ccccc32)c(=O)n1-c1ccccc1F)NCC1CCCO1 (stereo not drawn)
  VDR inhibitor: -6.8%

> O=C(CSc1nncs1)NCCCc1ccccc1
  VDR inhibitor: 19.3%

> CCOc1ccc(CNC(=O)CCCn2c(=O)c3cccn3c3ccc(F)cc32)cc1
  VDR inhibitor: 4.6%

> CCN(CC)C(=O)c1cn(-c2ccccc2)nc1-c1ccc2c(c1)OCCO2
  VDR inhibitor: -4.1%

> COC(=O)c1[nH]c2ccc(C)cc2c1NC(=O)NC1CCCCC1
  VDR inhibitor: 12.7%

> C=CC(=O)NN(C)c1ncc(C(F)(F)F)cc1Cl
  VDR inhibitor: 14.5%

> COc1ccc(C2Nc3ccccc3-n3c(-c4ccccc4)c4c(=O)n(C)c(=O)n(C)c4c32)cc1 (stereo not drawn)
  VDR inhibitor: 15.5%

> C=C(C(=O)O)C1CCC2(C)CCCC(C)(O)C2C1 (stereo not drawn)
  VDR inhibitor: 10.7%

> COCCCNC(=O)c1ccc(OC)c(OC2CCN(C(C)C)CC2)c1
  VDR inhibitor: -3.3%

> O=C(COc1ccc(S(=O)(=O)N2CCOCC2)cc1)N1CCCCCC1
  VDR inhibitor: -9.6%

> CCN(C(=O)COC(=O)/C=C/c1ccccc1Cl)c1c(N)n(Cc2ccccc2)c(=O)[nH]c1=O
  VDR inhibitor: -17.0%

> COc1ccc(C2C=C(Nc3ccccc3)C(=O)N2c2ccccc2)cc1OC (stereo not drawn)
  VDR inhibitor: -6.7%

> COc1ccc(/C=C/c2nnc(NC(=O)C(C)(C)C)s2)cc1
  VDR inhibitor: -2.1%

> COc1ccc(CC(=O)NCc2csc(-c3cccs3)n2)cc1OC
  VDR inhibitor: 16.1%

> COc1ccc(C2SCC(=O)N2c2ccc(F)cc2)cc1 (stereo not drawn)
  VDR inhibitor: 8.3%

> CC(=O)Nc1ccc2c(c1)-c1ccc(F)cc1C2=O
  VDR inhibitor: -7.0%

> O=C(COc1cccnc1[N+](=O)[O-])Nc1cccc(Br)c1
  VDR inhibitor: 11.9%

> O=C(Nc1nc2ccc(F)cc2s1)c1nc(S(=O)(=O)Cc2ccccc2F)ncc1Cl
  VDR inhibitor: ?

> O=C(Nc1ccc(S(=O)(=O)N2CCCC2)cc1)c1cnccn1
  VDR inhibitor: 6.1%

> Clc1ncnc2scc(-c3ccccc3)c12
  VDR inhibitor: 5.8%

> CCOC(=O)C(Cc1ccccc1)C(=O)NCc1cccnc1 (stereo not drawn)
  VDR inhibitor: 2.4%

> c1cncc(CNc2ccnc(-c3cccnc3)n2)c1
  VDR inhibitor: -14.5%

> COc1ccccc1NC(=O)C1=C(C)Nc2nc(SCc3ccccc3)nn2C1c1cccc(O)c1 (stereo not drawn)
  VDR inhibitor: 1.4%

> CNC(=S)N/N=C(\C)c1ccc(-n2ccnc2)cc1
  VDR inhibitor: -13.5%

> [O-]/C(=C(\C(=S)Nc1cccc2ccccc12)[n+]1ccccc1)c1cccs1
  VDR inhibitor: 2.4%

> O=C(Cn1c(=O)oc2cc(S(=O)(=O)N3CCCC3)ccc21)NCc1ccc(F)cc1
  VDR inhibitor: 0.1%&2.8%

> Cc1cccc(Cn2ccc(NC(=O)c3cccnc3)n2)c1
  VDR inhibitor: -15.9%

> Cc1nc(-c2ccccc2)sc1C1(C)CC(c2c(Cl)cccc2Cl)=NO1 (stereo not drawn)
  VDR inhibitor: -15.3%

> C[N+](C)(C)CCOC(N)=O
  VDR inhibitor: -2.1%&-7.3%&-2.0%&3.0%&1.4%

> CCOC(=O)CNC(=O)C1CCCCC1
  VDR inhibitor: -15.3%

> Cc1cccc(NC(=O)C2CC3CCC2C3)c1C (stereo not drawn)
  VDR inhibitor: -8.7%

> CCC(C(=O)Nc1ccc(C)cc1)c1ccccc1 (stereo not drawn)
  VDR inhibitor: -1.9%

> CCN(Cc1cc2cc(OC)ccc2[nH]c1=O)C(=O)Cc1ccc(OC)cc1
  VDR inhibitor: 3.0%

> CCOC(=O)NC(=O)/C(C#N)=N\Nc1cccc(OC)c1
  VDR inhibitor: -0.8%

> CC(=O)c1cn(CC(=O)Nc2ccc(C)c(C)c2)c2ccccc12
  VDR inhibitor: -0.1%

> CCOC(=O)c1nnn(-c2nonc2N)c1-c1ccc(C)cc1
  VDR inhibitor: 2.0%

> Cc1sc2c(c1C)c(=O)n(-c1cccc(C(F)(F)F)c1)c(=O)n2Cc1ccc(F)cc1
  VDR inhibitor: 1.7%

> CCOc1ccc(-c2nc(-c3cccs3)c(CC(=O)O)s2)cc1OC
  VDR inhibitor: 2.5%

> O=C(Nc1ccc(Cl)cc1Cl)c1cc(S(=O)(=O)NCc2ccc3c(c2)OCO3)ccc1F
  VDR inhibitor: 12.2%

> N#CCc1ccc(NC(=O)CSc2nnc(C3CC3)n2C2CC2)cc1
  VDR inhibitor: -4.8%

> O=C(CCN1C(=O)C2C3C=CC(C3)C2C1=O)N1CCN(c2ccccc2F)CC1 (stereo not drawn)
  VDR inhibitor: 13.3%

> CN(CC(=O)Nc1cccc(F)c1)C(=O)c1ccc(COc2ccccc2)cc1
  VDR inhibitor: 16.8%

> CN(C)Cc1c(O)ccc2c(=O)c(-c3ccccc3)c(C(F)(F)F)oc12
  VDR inhibitor: 7.6%

> CCN1C(c2ccccc2)=C(c2ccccc2)S/C1=C/C=C1\SC(=S)N(C)C1=O
  VDR inhibitor: ?

> CCOc1ccc2nc(Cl)c(C3CC(c4ccco4)=NN3S(C)(=O)=O)cc2c1 (stereo not drawn)
  VDR inhibitor: 5.4%

> CC[C@@H]1C/C=C\Cc2ccccc2[C@H](C(=O)C[C@@H](O)CC(C)=O)OC1=O
  VDR inhibitor: 5.1%

> O=C(CSc1nnc(-c2ccccn2)n1-c1ccccc1)Nc1ccc2c(c1)OCO2
  VDR inhibitor: -1.2%

> CCOc1cc(N2CCOCC2)c(OCC)cc1NC(=O)COC(=O)c1ccc([N+](=O)[O-])o1
  VDR inhibitor: -19.5%

> CCCOC(=O)c1ccc(NS(=O)(=O)c2cccs2)cc1
  VDR inhibitor: -1.5%

> Cc1ccc(CNC(=O)c2nnn(CC(=O)Nc3cc(C)cc(C)c3)c2N)cc1
  VDR inhibitor: -4.4%

> CN(C)c1ccc(C(=O)N2CCCC2)cc1
  VDR inhibitor: 9.1%

> O=C(C1CCCO1)N1CCN(C(=S)Nc2ccc(F)cc2)CC1 (stereo not drawn)
  VDR inhibitor: -4.6%

> COC(CNC(=O)c1cc(S(=O)(=O)N2CCc3ccccc32)ccc1F)OC
  VDR inhibitor: -7.4%

> CC(C)c1ccc(/C=C2\SC(=S)N(CCC(=O)N3CCCCC3CCO)C2=O)cc1 (stereo not drawn)
  VDR inhibitor: ?

> COc1ccc(OC)c(CNc2ncnc3onc(-c4ccc(Cl)cc4)c23)c1
  VDR inhibitor: -8.1%

> O=C(CSC1=NCCS1)Nc1cccc2ccccc12
  VDR inhibitor: -12.4%

> CCC(C)n1c(SCc2c(F)cccc2Cl)nc2ccsc2c1=O (stereo not drawn)
  VDR inhibitor: -1.3%

> CCOC(=O)C(C#N)C(Cc1ccccc1)c1ccco1 (stereo not drawn)
  VDR inhibitor: -6.7%

> O=C1/C(=C\c2ccncc2)CCc2ccccc21
  VDR inhibitor: 79.4µM*

> O=C(CC1SC(N2CCCCC2)=NC1=O)Nc1cccc(C(=O)O)c1 (stereo not drawn)
  VDR inhibitor: 0.4%

> CCN(CC)S(=O)(=O)c1ccc(Cl)c(OC)c1
  VDR inhibitor: 10.5%

> COc1ccc(CSc2nnc(C)n2N)cc1[N+](=O)[O-]
  VDR inhibitor: 0.8%

> CC(=O)OCC(=O)Nc1ccc([N+](=O)[O-])cc1Cl
  VDR inhibitor: 2.3%

> NC(=O)NOCc1ccc(Cl)cc1Cl
  VDR inhibitor: -22.5%

> Cc1ccc2c(c1)C1CN(C)CCC1N2C(=O)COc1ccc(N(C)C(=O)C(C)(C)C)cc1 (stereo not drawn)
  VDR inhibitor: -2.4%

> O=C(CCc1ccccc1)NC1CCSC1=O (stereo not drawn)
  VDR inhibitor: 24.2%

> CC(C)CSc1nc2ccccc2c(=O)[nH]1
  VDR inhibitor: 5.4%

> Cn1cnnc1SCC(=O)NC1CCCCCC1
  VDR inhibitor: 4.9%

> COc1cccc(OC)c1OCC(O)CN1CCN(c2ccccc2F)CC1 (stereo not drawn)
  VDR inhibitor: 1.5%

> Cc1cnc(CNc2nc(-c3ccccc3Cl)nc3ccccc23)cn1
  VDR inhibitor: -14.7%

> O=C(Nc1ccccc1Cl)c1ccccc1Cc1ccccc1
  VDR inhibitor: -7.7%

> COc1ccccc1N1CCN(C(=O)c2n[nH]c3ccccc23)CC1
  VDR inhibitor: -0.3%

> CCCCCC1NC(=O)NC1CCCCCC(=O)O (stereo not drawn)
  VDR inhibitor: 2.7%

> c1coc(CN(Cc2ccco2)c2ncnc3c2oc2ccccc23)c1
  VDR inhibitor: -9.9%

> CCN(C(=O)COC(=O)c1ccccc1Nc1ccccc1)c1c(N)n(Cc2ccccc2)c(=O)[nH]c1=O
  VDR inhibitor: -14.8%

> Cc1ccc(NC(=O)CCc2c(C)nc3nc(C)nn3c2C)c(Cl)c1
  VDR inhibitor: -10.7%

Filtered by structure: the compounds so far containing an aryl methoxy group.
> COc1ccc(C2Nc3ccccc3-n3c(-c4ccccc4)c4c(=O)n(C)c(=O)n(C)c4c32)cc1 (stereo not drawn)
  VDR inhibitor: 15.5%

> COCCCNC(=O)c1ccc(OC)c(OC2CCN(C(C)C)CC2)c1
  VDR inhibitor: -3.3%

> COc1ccc(C2C=C(Nc3ccccc3)C(=O)N2c2ccccc2)cc1OC (stereo not drawn)
  VDR inhibitor: -6.7%

> COc1ccc(/C=C/c2nnc(NC(=O)C(C)(C)C)s2)cc1
  VDR inhibitor: -2.1%

> COc1ccc(CC(=O)NCc2csc(-c3cccs3)n2)cc1OC
  VDR inhibitor: 16.1%

> COc1ccc(C2SCC(=O)N2c2ccc(F)cc2)cc1 (stereo not drawn)
  VDR inhibitor: 8.3%

> COc1ccccc1NC(=O)C1=C(C)Nc2nc(SCc3ccccc3)nn2C1c1cccc(O)c1 (stereo not drawn)
  VDR inhibitor: 1.4%

> CCN(Cc1cc2cc(OC)ccc2[nH]c1=O)C(=O)Cc1ccc(OC)cc1
  VDR inhibitor: 3.0%

> CCOC(=O)NC(=O)/C(C#N)=N\Nc1cccc(OC)c1
  VDR inhibitor: -0.8%

> CCOc1ccc(-c2nc(-c3cccs3)c(CC(=O)O)s2)cc1OC
  VDR inhibitor: 2.5%

> COc1ccc(OC)c(CNc2ncnc3onc(-c4ccc(Cl)cc4)c23)c1
  VDR inhibitor: -8.1%

> CCN(CC)S(=O)(=O)c1ccc(Cl)c(OC)c1
  VDR inhibitor: 10.5%

> COc1ccc(CSc2nnc(C)n2N)cc1[N+](=O)[O-]
  VDR inhibitor: 0.8%

> COc1cccc(OC)c1OCC(O)CN1CCN(c2ccccc2F)CC1 (stereo not drawn)
  VDR inhibitor: 1.5%

> COc1ccccc1N1CCN(C(=O)c2n[nH]c3ccccc23)CC1
  VDR inhibitor: -0.3%

Ordered by molecular weight (lowest first): part of the list above.
> c1coc(CN(Cc2ccco2)c2ncnc3c2oc2ccccc23)c1
  VDR inhibitor: -9.9%

> Cc1ccc(NC(=O)CCc2c(C)nc3nc(C)nn3c2C)c(Cl)c1
  VDR inhibitor: -10.7%

> Cc1ccc2c(c1)C1CN(C)CCC1N2C(=O)COc1ccc(N(C)C(=O)C(C)(C)C)cc1 (stereo not drawn)
  VDR inhibitor: -2.4%
